KCNQ2 pot: potentiators of rat KCNQ2 potassium channel; CHO-K1 KCNQ2, FluxOR thallium flux fluorescence; stronger effect = higher value; B-score at 10 µM; hit rate 0.54% among 310,000;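 active = fluorescence ratio B-score at least 3 SD of library B-scores, with initial fluorescence B-score within 3 SD, cut at about 5.3 in these data; same plate scores as AID 2156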;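 note: B-score of peak minus minimum over baseline fluorescence ratio after K+ and Tl+ stimulus; positive B-score means potentiation of KCNQ2 with more thallium influx and brighter signal; only the inactives scoring about 0 or higher are listed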
Target sequence (O88943 whole entry, looked up): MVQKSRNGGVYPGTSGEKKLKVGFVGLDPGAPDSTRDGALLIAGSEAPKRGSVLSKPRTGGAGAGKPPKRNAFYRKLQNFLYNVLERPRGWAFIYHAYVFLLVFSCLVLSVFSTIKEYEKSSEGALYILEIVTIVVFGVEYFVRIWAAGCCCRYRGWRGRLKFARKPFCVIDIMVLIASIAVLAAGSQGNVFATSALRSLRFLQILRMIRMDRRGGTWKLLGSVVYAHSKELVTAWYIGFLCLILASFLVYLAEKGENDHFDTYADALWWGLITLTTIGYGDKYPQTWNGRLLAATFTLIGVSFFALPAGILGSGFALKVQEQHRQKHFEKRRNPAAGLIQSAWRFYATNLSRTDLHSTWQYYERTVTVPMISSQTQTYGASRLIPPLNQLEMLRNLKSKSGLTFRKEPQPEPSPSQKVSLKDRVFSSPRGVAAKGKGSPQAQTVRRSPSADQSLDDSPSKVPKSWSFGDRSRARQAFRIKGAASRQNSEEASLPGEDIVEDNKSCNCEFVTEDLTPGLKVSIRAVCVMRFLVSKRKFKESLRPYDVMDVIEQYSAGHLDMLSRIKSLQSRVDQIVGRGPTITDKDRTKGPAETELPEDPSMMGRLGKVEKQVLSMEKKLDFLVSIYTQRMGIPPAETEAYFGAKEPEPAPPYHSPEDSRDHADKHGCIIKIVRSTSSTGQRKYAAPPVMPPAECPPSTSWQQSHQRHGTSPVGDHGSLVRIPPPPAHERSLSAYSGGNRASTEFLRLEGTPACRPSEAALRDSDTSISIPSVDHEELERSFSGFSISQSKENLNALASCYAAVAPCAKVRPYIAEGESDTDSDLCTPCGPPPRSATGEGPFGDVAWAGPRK
KCNQ2 pot baseline: recorded beside KCNQ2 pot, whose call it bears; B-score; compound at 10 µM; measured here: initial fluorescence intensity artifact check;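 brightness before thallium and not channel activity; 0 = typical well and far values either way flag optical interference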
* hit, by the source's call. Only part of the results is shown; rates above refer to the full screens.

SMILES	KCNQ2 pot	KCNQ2 pot baseline
COc1ccc(Cl)cc1NC(=O)Nc1cnccn1	0.4	0.73
COCCNC(=O)c1onc(CSc2cccc(C)c2)c1C(=O)O	1.61	-0.77
CCO/C=C1/C(=O)N(c2ccccc2OC)C(=O)c2ccccc21	0.52	-1.55
C1=CCN(Cc2ccccc2)C1	0.34	-0.3
Cc1cc(C(=O)N2CCN(c3ccc(F)cc3)CC2)on1	2.22	-0.51
Cc1cc(C(=O)NCCCN2CCCC2=O)no1	0.16	-2.02
O=C(CN1CCOCC1)N/N=C/C(Br)=C\c1ccccc1	0.63	0.19
O=C(Nc1ccc(Oc2ccccc2)cc1)c1ccco1	9.83*	0.06*
CCC1CCCCN1Cc1nc2c(c(=O)n(C)c(=O)n2C)n1CCC(C)C (stereo not given)	1.84	-1.05
Cc1cccc(C(P(=O)(c2ccccc2)c2ccccc2)P(=O)(c2ccccc2)c2ccccc2)n1	0.49	-0.29
CN(C)CCN(C(=O)c1ccc2ccccc2c1)c1nc2ccc(F)cc2s1	0.75	0.89
COc1c(/C=N/NC(=O)[C@H]2C[C@@H]2c2ccccc2)c(CCN(C)C(C)=O)cc2c1OCO2	0.38	-0.61
COc1ccc(OC)c(N(CC(=O)Nc2cccc(C(F)(F)F)c2)S(C)(=O)=O)c1	1.36	-0.79
O=C(NCCc1ccccc1)c1cnc2n(c1=O)CCS2	0.22	-0.1
CCC1(c2ccccc2)NC(=S)N(c2ccc(C)c(C)c2)N1 (stereo not given)	12.9*	0.59*
CCCCc1ccc(NC(=S)NCCO)cc1	1.14	-0.76
CCOc1ccc(CNC(=O)CCCn2nc(CC)n3c(cc4occc43)c2=O)cc1	1.08	-2.52
Cc1occc1C(=O)N/N=C/c1cnn(C)c1C	0.45	-1.25
O=C(NNC(=O)c1ccc(F)cc1)C(=O)N1CCCCC1	2.15	-0.41
N#Cc1ccc(NC(=O)c2cc(=O)c3ccccc3o2)cc1	1.16	0.04
CC1(C)N=C(N)NC(Nc2cccc(Br)c2)=N1	2.14	-0.81
CCC(=O)c1ccc(OC(=O)c2cnccn2)cc1	0.88	0.51
COc1ccccc1C(=O)NCC(=O)NC(C)c1ccc(-n2ccnc2)cc1 (stereo not given)	0.11	-0.63
CCCn1c(-c2ccc(C(=O)OC)cc2)nc2c1c(=O)[nH]c(=O)n2Cc1ccccc1	0.98	1.81
COc1cc(NC(=O)c2cc(OC)c(OC)c(OC)c2)cc(-n2cnnn2)c1	0.56	0.27

Reprinted at random: 5 entries already listed.
SMILES	KCNQ2 pot	KCNQ2 pot baseline
Cc1occc1C(=O)N/N=C/c1cnn(C)c1C	0.45	-1.25
CCO/C=C1/C(=O)N(c2ccccc2OC)C(=O)c2ccccc21	0.52	-1.55
N#Cc1ccc(NC(=O)c2cc(=O)c3ccccc3o2)cc1	1.16	0.04
CC1(C)N=C(N)NC(Nc2cccc(Br)c2)=N1	2.14	-0.81
COc1ccc(Cl)cc1NC(=O)Nc1cnccn1	0.4	0.73

(listing goes on)
SMILES	KCNQ2 pot	KCNQ2 pot baseline
O=C(Nc1ccncc1)c1cn(-c2ccccc2)nc1-c1cccs1	0.2	1.29
Cc1ccccc1-n1ncc2c([N+](=O)[O-])cc([N+](=O)[O-])cc21	1.61	-1.27
CCc1ccccc1NC(=O)N[C@@H](C)C(=O)OC	0.29	-1.73
CC(=O)N1c2ccccc2C(=O)OC1c1cccnc1 (stereo not given)	0.29	2.48
O=C(CCSc1ccccc1)N1CCCC1	0.55	0
O=C(N/N=C\c1cn[nH]c1-c1ccccc1)c1cccnc1	1.16	0.63
NC(=O)c1nn(-c2ccccc2)nc1NC(=O)CN1CCCC1	1.63	-0.03
Cc1ccc(S(=O)(=O)NC(C)C(=O)N2CCOCCOCCOCCOCC2)cc1 (stereo not given)	0.13	0.03
O=C(Cn1c(=O)n(Cc2ccco2)c(=O)c2ccccc21)NCC1CCCO1 (stereo not given)	0.68	0.07
CC(OC(=O)CN1C(=O)NC(C)(C)C1=O)C(=O)c1ccccc1 (stereo not given)	0.95	-0.08
C[C@@H]1CC2OC(=O)[C@@]3(C)C(=O)CC[C@@](C)(C23)[C@@]1(O)CCc1ccoc1 (stereo not given in full)	0.09	-2.22
Cn1c(=O)c2c(nc(NCCNC(=O)c3ccco3)n2Cc2ccc(Cl)cc2Cl)n(C)c1=O	0.77	1.77
CCN1C(=O)[C@H]2[C@@H](c3ccc(C)cc3)N3C(=O)N(c4cccc(F)c4)C(=O)[C@@]3(CC)[C@H]2C1=O	1.02	0.56
CCCCc1nnc(SCCSc2nnc(CCCC)n2N)n1N	0.47	-0.05
CCn1c(=O)n(-c2ccc(Cl)cc2)c(=O)c2c3c(sc21)COC(C)(C)C3	0.42	-0.08
CCOc1ccc2c(c1)c(N=NC(N)=S)c(O)n2C	0.81	-2.25
Cc1nc2nc(-c3ccco3)[nH]n2c(=O)c1Cc1ccccc1	0.25	0.16
O=C(Cn1cccc1)Nc1ccc(OC(F)(F)F)cc1	0.03	0.6
O=C1CC(c2cccs2)Cc2nc(NCC3CCCO3)ncc21 (stereo not given)	1.31	-0.18
COc1cccc(Nc2nc(C)nc3c2oc2ccccc23)c1	0.02	-0.65
O=C(CSc1nnc(C2CC2)n1Cc1ccco1)NCC(F)(F)F	0.18	0.15
C/C(=N\NC(=O)C(O)(c1ccccc1)c1ccccc1)c1ccc(NC(=O)CCCC(=O)O)cc1	0.14	-0.15
Nc1ccc(Nc2ccccc2)c(S(=O)(=O)O)c1	0.12	-0.13
O=C(c1cccc(C(F)(F)F)c1)N1CCC(O)(CS(=O)(=O)Cc2ccccc2)CC1	0.07	0.03
COC(=O)CCCNC(=O)c1ccc2nc(Cc3ccc(OC)cc3)oc2c1	0.72	1.16

(further entries)
SMILES	KCNQ2 pot	KCNQ2 pot baseline
O=C(CNc1ccc(F)cc1)N/N=C/c1c(O)ccc2ccccc12	0.55	-0.36
Cc1ccc(-c2noc(CCC(=O)NCC3CCCO3)n2)cc1 (stereo not given)	1.64	0.19
COCCOCCn1cnc2ccccc21	1.89	-1.18
Cc1ccc(NC(=O)C(C)OC(=O)CCN=C2NS(=O)(=O)c3ccccc32)cc1 (stereo not given)	0.64	0.97
Cc1cc(NC(=O)CSc2nc(=O)cc(N)n2-c2ccc(Cl)cc2)no1	0.54	0.3
O=C(CSc1nnc(-c2n[nH]c3ccccc23)n1-c1ccccc1)Nc1ccccc1Cl	0.03	1.72
Cc1cccc(-n2c(CNC(=O)c3ccccc3)nnc2SCC(=O)Nc2nccs2)c1	0.35	0.52
C[C@H](NC(=O)OCc1ccccc1)C(=O)N[C@@H](Cc1c[nH]c2ccccc12)C(=O)O	0.91	-0.04
CCc1ccc(C(C(=O)NC2CCCC2)N(C(=O)/C=C/C(=O)Nc2cc(C)on2)c2ccccc2C)cc1 (stereo not given)	0.04	-1.17
NS(=O)(=O)c1ccc(CCNC(=O)CN2CCN(c3cccc(Cl)c3)CC2)cc1	1.1	0.05
COc1ccc2[nH]c(=O)c(CN(C(=O)c3cccnc3)c3ccccc3OC)cc2c1	1.48	0.9
CCOC(=O)C1CCN(C(=O)Cc2c(C(=O)O)n(CC)c3ccccc23)CC1	0.49	-0.64
O=C(Cn1cnc2ccccc2c1=O)NCCC(=O)Nc1ccccc1C(F)(F)F	0.36	-0.04
CNc1oc(-c2ccccc2)nc1C#N	0.51	-0.79
CCc1cc(=O)oc2cc(C)cc(OC(C)C(=O)O)c12 (stereo not given)	0.63	0.14
CCOC(=O)Cc1c(C)nc(Cc2ccc(OC(C)C)cc2)[nH]c1=O	0.44	0.09
O=C(Cc1c(F)cccc1Cl)NC1CCN(Cc2ccccc2)CC1	0.71	0.08
CCOc1ccc(NC(=S)N(CCCN2CCOCC2)Cc2cn(C)c3ccccc23)cc1	0.12	-0.97
Cc1ccc(-c2nc3ccccc3s2)cc1NC(=S)NC(=O)c1cccc2ccccc12	0.45	-1.01
O=C(Nc1ccccc1F)c1ccco1	0.79	-0.68
COc1cnc(N(C)C)nc1Sc1ccc(Cl)cc1	1.91	0.03
COc1ccc(NC(NC(=O)c2cccnc2)C(Cl)(Cl)Cl)cc1 (stereo not given)	0.65	-0.77
Cc1ccc2c(c1)N(C(=O)CSc1nncn1C)C(C)(C)c1ssc(=S)c1-2	0.72	1.39
O=C(NCC12CC3CC(C1)CC(CNC(=O)N1CCCC1)(C3)C2)N1CCCC1	0.06	-0.52
Cn1c(CNC(=O)c2ccco2)nnc1SCC(=O)c1ccc(F)cc1	0.02	1.97

The final three records of the section above open the next one:
SMILES	KCNQ2 pot	KCNQ2 pot baseline
Cc1ccc2c(c1)N(C(=O)CSc1nncn1C)C(C)(C)c1ssc(=S)c1-2	0.72	1.39
O=C(NCC12CC3CC(C1)CC(CNC(=O)N1CCCC1)(C3)C2)N1CCCC1	0.06	-0.52
Cn1c(CNC(=O)c2ccco2)nnc1SCC(=O)c1ccc(F)cc1	0.02	1.97
CC(=O)NCCc1ccc(S(=O)(=O)NC2OC(=O)c3ccccc32)cc1 (stereo not given)	0.25	0.16
O=C(NC(=S)Nc1ccccc1Cl)c1cncc(Br)c1	0.53	0.46
O=C(COC(=O)COc1ccc2ccccc2c1)NCC(F)(F)F	1.08	-0.13
COC(=O)Cn1c(CN2CCOCC2)nc2c1c(=O)n(C)c(=O)n2C	0.01	-1.28
C/C(=N\NC(N)=O)C1(C)CCCCC1	1.03	0.02
CCNc1nc(NC(C)C)nc(N(C)C#N)n1	0.75	0.73
O=C(NNC(=O)C(O)(c1ccccc1)c1ccccc1)C1CC1	0.66	1.25
CCN1CCN(C(=O)CCN2C(=O)c3ccccc3C2=O)CC1	0.01	-2.53
Cc1ccc(C(=O)O)cc1S(=O)(=O)N1CCC(C(=O)O)CC1	0.59	1.65
O=C1C(=O)N(CCCN2CCOCC2)C(c2cccs2)/C1=C(/O)c1ccc2c(c1)OCO2 (stereo not given)	0.89	-0.33
O=S(=O)(CCSc1nc2ccccc2o1)c1nc2ccccc2s1	0.15	0.71
COc1ccccc1-c1nc(C#N)c(N2CCC(C(N)=O)CC2)o1	0.23	0
Cc1nn(C)cc1C(C)NCc1c(C(=O)N2CCCCCCC2)nc2ccc(Cl)cn12 (stereo not given)	1.02	0.41
CCOc1ccc(-c2nc(C#N)c(NCC3CCCO3)o2)cc1 (stereo not given)	0.77	-2.11
CC(=O)NC(CCCCNC(=S)NC1CCCCC1)C(=O)O (stereo not given)	0.01	-1.68
CC(=O)c1ccc(NS(=O)(=O)c2ccc(N/C=C/C(=O)c3ccc(F)cc3)cc2)cc1	1.77	-0.19
O=C(O)c1ccc(/C=N/NC(=O)c2cc(-c3ccc4c5c(cccc35)CC4)n[nH]2)cc1	0.15	1.34
Cc1cc(SCC(=O)OCC(=O)c2c(N)n(C)c(=O)n(C)c2=O)c(C)cc1Br	0.54	-0.3
Cc1cc(NC(=O)CN2C(=O)NC(C)(CCc3ccccc3)C2=O)no1 (stereo not given)	1.77	0.26
O=C(COc1ccc2c3c(c(=O)oc2c1)CCC3)Nc1ccc(CN2CCOCC2)cc1	1.21	-0.04
COc1ccc(Cl)cc1N1CC(c2nc3ccccc3[nH]2)CC1=O (stereo not given)	0.01	0.5
O=S(=O)(c1ccc(OCC(O)CN2CCC(Cc3ccccc3)CC2)cc1)N1CCOCC1 (stereo not given)	1.65	-0.93
CCOC(=O)c1cnn(Cc2ccc(C)cc2)c1N	2.68	0.73
CC(C)(C)C(O)(CC#CCN1CCCC1)c1ccccc1 (stereo not given)	1.73	-0.52
Cc1ccc(C(=O)N/C(=C\c2cccs2)C(=O)NCCc2ccccn2)cc1C	0.27	-0.14

Whole records as entered above.
Profile of COC(=O)Cn1c(CN2CCOCC2)nc2c1c(=O)n(C)c(=O)n2C : KCNQ2 pot: 0.01; KCNQ2 pot baseline: -1.28
Profile of CC(C)(C)C(O)(CC#CCN1CCCC1)c1ccccc1 (stereo not given) : KCNQ2 pot: 1.73; KCNQ2 pot baseline: -0.52

Following part.
SMILES	KCNQ2 pot	KCNQ2 pot baseline
CC(C)OCCCNC(=O)c1ccncc1	0.04	-0.75
COc1cc2ccccc2cc1C(=O)N/N=C/c1cccnc1	0.12	-0.4
Cc1cc(C)c(S(=O)(=O)Nc2ccc3[nH]c(=O)[nH]c3c2)c(C)c1	0.36	0
Cc1ccc(NC(CNS(=O)(=O)c2ccc(Cl)cc2)c2ccccc2)cc1 (stereo not given)	0.45	1.95
O=C(COC(=O)c1ccc(Cl)cc1O)Nc1cccnc1Cl	2.85	-2.09
CN(Cc1ccccc1)c1ccc(C(CC(N)=O)NC(=O)c2ccccc2)cc1[N+](=O)[O-] (stereo not given)	0.42	0.13
Clc1ccc(OCCCc2nc(-c3ccncc3)no2)c(Cl)c1	0.08	-0.14
Nc1nnc(SCC(=O)Nc2cccc(S(=O)(=O)N3CCOCC3)c2)s1	1.85	-0.72
O=C(CN1C(=O)c2ccccc2C1=O)N1CCN(c2nnc(-c3ccccc3)c3ccccc23)CC1	0.33	-1.44
CC(=O)c1cnc(-c2ccccc2)s1	0.91	-1.26
COc1ccc(-c2csc(NC(=O)CSc3ccc(Br)cc3)n2)c(OC)c1	2.33	-0.04
COc1ccccc1N1CCN(C(=O)C2CCCN(S(=O)(=O)c3ccc4c(c3)oc(=O)n4C)C2)CC1 (stereo not given)	2.07	-2.68
COC(=O)c1[nH]c2ccc(C)cc2c1NC(=O)C(C)N1CCN(C2CCCCC2)CC1 (stereo not given)	0.99	-0.87
O=C(Nc1cccc(C(F)(F)F)c1)c1cncs1	1.86	0.01
Cc1ccc(NC(=O)CCC(=O)OCC(=O)c2ccc(Oc3ccc([N+](=O)[O-])cc3)cc2)c(C)c1	0.58	-1.18

Reformatted with values under each structure: 4 of the compounds above
Values run as follows: KCNQ2 pot | KCNQ2 pot baseline
O=C(Nc1cccc(C(F)(F)F)c1)c1cncs1
 : 1.86 | 0.01
COC(=O)c1[nH]c2ccc(C)cc2c1NC(=O)C(C)N1CCN(C2CCCCC2)CC1 (stereo not given)
 : 0.99 | -0.87
Nc1nnc(SCC(=O)Nc2cccc(S(=O)(=O)N3CCOCC3)c2)s1
 : 1.85 | -0.72
COc1cc2ccccc2cc1C(=O)N/N=C/c1cccnc1
 : 0.12 | -0.4

Bioassay records deposited in PubChem BioAssay by Johns Hopkins Ion Channel Center.
